Screening data from PubChem BioAssay.
PAFAH1B3 FP inh: blocks human PAF acetylhydrolase 1B catalytic subunit 3. Q15102. recombinant PAFAH1B3, FP-rhodamine probe, fluorescence polarization. inhibition, % at 3.39 µM. 340,000 tested, 0.28% active;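 active = inhibition above the screen-wide average of all tested compounds plus 3 SD, cut at about 25% in these data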;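 note: 0% = enzyme with DMSO only and 100% = wells lacking PAFAH1B3 protein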
Fam108B counter: counter-screen for RBBP9 inhibitors: inhibitors of mouse Fam108B; recombinant Fam108B, FP-Rh probe fluorescence polarization; inhibition, % at 9.51 µM; 300,000 tested, 0.33% active;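 active = inhibition above the screen mean inhibition plus 3 SD, computed separately per campaign, cut at about 18% in these data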;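 note: inhibitors lower polarization as less probe binds the enzyme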
PAFAH2 FP inh: PAFAH2 (human) inhibition. inhibition, % at 3.39 µM. Q99487. 340,000 tested, 0.99% active. AID 492956. recombinant PAFAH2, FP-rhodamine activity probe, fluorescence polarization;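 active = inhibition above the mean over all tested compounds plus 3 SD, cut at about 30% in these data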;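 note: inhibitors block probe labeling of enzyme so polarization drops; 0% = enzyme with DMSO and 100% = wells lacking PAFAH2 protein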
PAFAH1B2 inh: PAFAH1B2 (human) inhibition; P68402; recombinant PAFAH1B2, FP-rhodamine activity probe, fluorescence polarization; inhibition, % at 3.39 µM; 340,000 tested, 1.2% active; AID 492953;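 active = inhibition above the mean of all tested compounds plus 3 SD, cut at about 24% in these data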;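 note: 0% = enzyme with DMSO and 100% = wells lacking PAFAH1B2; many of its hits are not listed in these tables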
Target sequence (P68402 whole entry, looked up): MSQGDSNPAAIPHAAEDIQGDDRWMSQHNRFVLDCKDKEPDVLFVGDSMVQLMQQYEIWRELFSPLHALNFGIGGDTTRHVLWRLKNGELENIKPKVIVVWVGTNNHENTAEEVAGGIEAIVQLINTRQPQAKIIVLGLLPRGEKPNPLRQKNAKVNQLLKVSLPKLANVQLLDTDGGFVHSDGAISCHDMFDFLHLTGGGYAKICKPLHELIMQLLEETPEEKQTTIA
LYPLA1 inh: blocks human lysophospholipase 1, a PME1 counter-screen; O75608; recombinant LYPLA1, FP-Rh probe fluorescence polarization; inhibition, % at 5.9 µM; 320,000 tested, 0.16% active; AID 2174;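 active = inhibition above the mean of all tested compounds plus 3 SD, set per campaign, cut at about 14% in these data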;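 note: inhibitors block serine hydrolase probe labeling of LYPLA1 so polarization falls; 0% = enzyme with DMSO and 100% = wells lacking LYPLA1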
pPAFAH FP inh: inhibitors of human plasma PAF acetylhydrolase (pPAFAH). Q13093. 330,000 tested, 1.5% active. inhibition, % at 3.39 µM. AID 463082. recombinant pPAFAH, FP-rhodamine probe fluorescence polarization;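 active = inhibition above the mean inhibition across the screen plus 3 SD, cut at about 25% in these data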;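 note: inhibitors block binding of the rhodamine activity-based probe so polarization drops; 0% = enzyme with DMSO and 100% = wells lacking pPAFAH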
GSTO1 counter: counter-screen for RBBP9 inhibitors: inhibitors of human GSTO1. inhibition, % at 5.96 µM. 300,000 tested, 1.1% active. recombinant GSTO1, activity-based probe fluorescence polarization. P78417. AID 1974;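 active = inhibition above the campaign mean inhibition plus 3 SD, cut at about 35% in these data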;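 note: 0% = GSTO1-1 with DMSO and 100% = wells lacking GSTO1-1 enzyme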
PAD4 FP inh: PAD4 (human) enzyme inhibition. AID 485272. Q9UM07. 330,000 tested, 0.41% active. inhibition, % at 6.36 µM. recombinant PAD4, RCA probe fluorescence polarization;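 active = percent inhibition above a cutoff equal to the mean of all tested compounds plus 3 SD, cut at about 15% in these data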;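 note: 0% = PAD4 with RCA probe and DMSO and 100% = probe without PAD4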
Target sequence (Q9UM07 whole entry, looked up): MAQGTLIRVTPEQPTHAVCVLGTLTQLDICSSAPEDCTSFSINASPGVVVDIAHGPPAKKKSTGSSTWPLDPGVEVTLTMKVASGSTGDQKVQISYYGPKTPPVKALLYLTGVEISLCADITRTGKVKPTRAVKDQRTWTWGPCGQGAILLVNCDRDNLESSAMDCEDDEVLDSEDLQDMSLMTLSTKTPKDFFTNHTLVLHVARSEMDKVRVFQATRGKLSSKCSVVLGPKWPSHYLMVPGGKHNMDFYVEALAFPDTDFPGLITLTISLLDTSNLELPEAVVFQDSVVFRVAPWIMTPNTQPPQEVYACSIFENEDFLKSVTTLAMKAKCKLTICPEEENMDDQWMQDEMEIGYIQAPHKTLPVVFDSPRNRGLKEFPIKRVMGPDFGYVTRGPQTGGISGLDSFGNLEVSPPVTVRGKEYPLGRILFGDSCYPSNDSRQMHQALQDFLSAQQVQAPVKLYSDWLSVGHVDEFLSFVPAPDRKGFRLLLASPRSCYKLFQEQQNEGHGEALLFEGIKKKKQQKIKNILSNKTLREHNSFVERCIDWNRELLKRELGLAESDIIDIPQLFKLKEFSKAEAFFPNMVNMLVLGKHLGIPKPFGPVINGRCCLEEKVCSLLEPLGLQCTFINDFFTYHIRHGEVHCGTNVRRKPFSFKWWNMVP
Active calls of the source: *; . = no result given. This is a subset, so the mix of outcomes need not match the whole.

SMILES	PAFAH1B3 FP inh	Fam108B counter	PAFAH2 FP inh	PAFAH1B2 inh	LYPLA1 inh	pPAFAH FP inh	GSTO1 counter	PAD4 FP inh
CC(C)NC(=O)NC(=O)COC(=O)c1c2c(nc3ccccc13)CCC2	4	0	-1	3	-1	14	4	-3
CC1CCCC(NC(=O)COC(=O)c2cccc(S(=O)(=O)N3CCCCC3)c2)C1C (stereo unspecified)	-3	.	18	5	-5	1	.	-1
O=c1c2c(nc3c(-c4ccccc4)c[nH]n13)CCCC2	2	3	8	1	5	3	11	2
COC(=O)COc1cccc(NC(=O)COc2ccccc2)c1	0	-3	1	7	0	3	5	4
COc1ccc(/C=N/Nc2ccc([N+](=O)[O-])cc2)cc1O	12	16	1	2	0	18	5	-2
Cn1c(N/N=C/c2ccccc2)nc2sc3c(c2c1=O)CCC3	9	5	13	2	-55	10	4	4
COc1ccc(S(=O)(=O)N2CCCCC2)cc1NS(=O)(=O)c1cc(Cl)ccc1Cl	6	-2	10	15	2	7	14	2
COc1cccc(-c2nc(C(N)=O)c3[nH]c(=O)n(-c4cccc(Cl)c4)c3n2)c1OC	-6	-2	2	1	1	4	6	-3
CCCCNc1nc2ccccc2nc1NS(=O)(=O)c1cccs1	1	3	7	10	2	5	-8	15
CN(C)c1cccc(C(=O)N2CCCC(C(=O)c3cc(F)ccc3F)C2)c1 (stereo unspecified)	4	0	0	1	-1	0	10	-5
COC(=O)c1cccc(S(=O)(=O)N2CCOCC2)c1	5	5	7	12	-3	-1	2	-1
NC(=O)c1nc(-c2cccs2)nc2c1[nH]c(=O)n2-c1ccc(F)cc1	-1	-4	-1	-4	1	-6	0	-4
CSc1nnc2c(n1)[nH]c1c(C)cccc12	-7	-1	0	-5	1	6	-6	-3
O=C(c1cccs1)N1CCCN(c2ncnc3scc(-c4ccccc4)c23)CC1	8	-1	-4	-3	2	2	-8	-3
O=C1c2cccc3c(Nc4ccccc4Cl)c([N+](=O)[O-])cc(c23)C(=O)N1CCO	7	9	12	3	3	11	2	7
Cc1ccc(C)c(CN2C(=O)C(C)Oc3ccc(C)cc32)c1 (stereo unspecified)	0	0	5	-4	4	3	2	-3
Cc1c(/C=N/NC(=O)c2cc(=O)[nH]c(=O)[nH]2)c2ccccn2c1C(=O)c1ccccc1	5	9	16	0	-2	4	22	-1
CC(NC(=O)C1CCN(S(=O)(=O)c2ccccc2)CC1)c1ccccc1 (stereo unspecified)	9	6	-1	0	2	0	-3	0
COc1cc2[nH]c(=S)nc(NC3CCCCCC3)c2cc1OC	9	2	4	2	-8	-1	-3	0
CCSc1nnc(NC(=O)CSc2nc3c(cc2C#N)CCCC3)s1	5	-2	-4	15	0	15	-24	3
CC(C(=O)NCCc1ccc(Cl)cc1)n1c(=O)c2cccn2c2cccnc21 (stereo unspecified)	4	1	1	11	1	4	4	-2
COc1ccc(Nc2nc(N)c([N+](=O)[O-])c(NC3CCCCC3)n2)cc1	10	14	-4	2	-6	23	-7	-2
COc1ccc(O)c(-c2cc(-c3ccc(F)cc3)n[nH]2)c1	10	15	2	5	-1	4	2	0
CC(=O)Oc1ccc(C(=O)Nc2ccc(C3(C#N)CCCC3)cc2)cc1	-3	-14	-1	4	-3	1	-11	-3
CCCCN(C)CCCNC(=O)c1cn(C)c2ccc(S(=O)(=O)N(C)C3CCCCC3)cc2c1=O	7	-8	2	7	-4	5	2	-1
COc1ccccc1NC(=O)C1=C(C)Nc2nnnn2C1c1cccc(Br)c1 (stereo unspecified)	2	1	5	5	-6	1	9	0
Fc1ccc(-c2cc3nc(-c4ccccc4)cc(N4CCOCC4)n3n2)cc1	4	1	-1	-9	-2	0	2	0
CCN(CC)S(=O)(=O)c1ccc(N2CCOCC2)c(NS(=O)(=O)c2ccc(C)c(C)c2)c1	-1	3	0	9	0	7	4	-3
O=C(O)c1cc(Cl)c(Cl)cc1C(=O)N1CCCC1	2	-1	-4	2	-1	3	6	-5
CCN(CC)c1ccc(S(=O)(=O)N2CCOCC2)cc1NC(=O)Cn1nc(C)c([N+](=O)[O-])c1C	2	.	3	2	1	0	.	-5
Cc1nc2c([nH]c3ccc(Br)cc32)s1	-2	-1	5	4	1	6	3	0
Cc1noc(C)c1S(=O)(=O)N1CCC(C(=O)NC2CCCc3ccccc32)CC1 (stereo unspecified)	3	4	-3	4	0	4	0	0
CCn1c2ccccc2c2cc(NC(=O)c3cccc([N+](=O)[O-])c3)ccc21	6	7	-14	-3	-8	7	-6	2
Cc1ccc(C2CC(=O)NC3=C2C(=O)CCC3)cc1Br (stereo unspecified)	10	1	2	0	3	0	8	-2
CCC(C)N1CCCCC1C(=O)Nc1c(C)cc(C)cc1C (stereo unspecified)	8	3	5	3	4	1	-2	5
Cc1ccc(Nc2nc(CSc3nnnn3-c3ccccc3)cc(=O)[nH]2)cc1	14	7	-5	4	-20	27*	-31	-17
Cc1cc2ncc(-c3ncc(C(F)(F)F)cc3Cl)cn2n1	3	0	3	0	-1	0	4	0
Cc1sc2nc(CN3CCOCC3)nc(NS(=O)(=O)c3cc(Cl)ccc3Cl)c2c1C	6	.	7	-1	-1	5	.	-7
O=C(COC(=O)c1cc(S(=O)(=O)N2CCOCC2)ccc1F)c1ccc[nH]1	13	-6	-8	4	0	4	-4	-5
O=c1[nH]c(C2CCCN(S(=O)(=O)c3ccccc3F)C2)nc2c1nnn2Cc1ccccc1Cl (stereo unspecified)	8	-3	7	16	-4	5	11	4
COc1cccc(Cn2cnc3c(NS(=O)(=O)c4cccc(Cl)c4Cl)c(C)c(C)cc32)c1	-6	-7	10	-8	-3	6	-6	0
COC(=O)C(C)n1cnc2c(nnn2-c2cccc(OC)c2)c1=O (stereo unspecified)	7	-5	2	-2	1	5	-2	-2
CC(=O)OC(/C(O)=C(\C#N)c1nc2ccccc2[nH]1)c1ccccc1 (stereo unspecified)	4	3	5	5	0	2	1	-4
O=S(=O)(Nc1cccc(-c2ccc3nncn3n2)c1)c1ccc(Cl)s1	1	1	-1	2	5	6	-5	0
CN(CC(=O)NCc1ccccc1Cl)CC(=O)Nc1ccccc1Br	5	.	-4	1	-2	1	.	1

Entries of single compounds as entered above. Order of values: PAFAH1B3 FP inh | Fam108B counter | PAFAH2 FP inh | PAFAH1B2 inh | LYPLA1 inh | pPAFAH FP inh | GSTO1 counter | PAD4 FP inh
Cc1noc(C)c1S(=O)(=O)N1CCC(C(=O)NC2CCCc3ccccc32)CC1 (stereo unspecified) is listed with 3 | 4 | -3 | 4 | 0 | 4 | 0 | 0
Cc1ccc(C2CC(=O)NC3=C2C(=O)CCC3)cc1Br (stereo unspecified) is listed with 10 | 1 | 2 | 0 | 3 | 0 | 8 | -2

Other structures:
SMILES	PAFAH1B3 FP inh	Fam108B counter	PAFAH2 FP inh	PAFAH1B2 inh	LYPLA1 inh	pPAFAH FP inh	GSTO1 counter	PAD4 FP inh
O=C(NCCCn1ccnc1)c1ccccc1Cl	7	1	-11	-2	-2	5	0	-4
COC(=O)[C@@H](NC(=O)N1CCN(C(=O)C2COc3ccccc3O2)CC1)C(C)C (stereo partly specified)	5	1	1	4	-1	-1	2	-5
CCCC(C)c1nc(C(N)=O)c2[nH]c(=O)n(-c3ccc(OC)cc3OC)c2n1 (stereo unspecified)	2	4	-5	0	0	2	-3	2
Cc1ccc(/C=N/n2c(-c3ccco3)n[nH]c2=S)s1	6	2	-1	8	-1	6	8	8
COc1ccc(C(=O)NNC(=O)c2cc3ccccc3cc2O)cc1	14	0	3	10	-9	12	7	2
C=CCOc1c(Br)cc(/C=N/n2c(CC)n[nH]c2=S)cc1Br	-11	2	3	3	-3	2	1	3
N#Cc1c(SCc2ccccc2)nc(N2CCOCC2)c2c1CCCC2	6	5	-3	-4	-3	1	-10	6
COc1ccc(CNc2nc(NCc3ccc(OC)cc3)n(C(=O)c3ccccc3[N+](=O)[O-])n2)cc1	7	0	8	2	0	8	-6	-1
CCOC(=O)c1sc(Nc2nc3ccc(OC)cc3s2)cc1C	9	16	-6	7	0	5	1	3
Cc1ccc(S(=O)(=O)Nc2cccc(-c3ccc(N4CCCCCC4)nn3)c2)cc1C	-11	-30	-16	0	-19	-10	-25	-4
CC(=O)c1ccc(NC(=O)Cn2cnc(S(=O)(=O)N3CCC(C)CC3)c2)cc1	4	0	19	4	4	8	-1	-3

No new results follow: an excerpt of the list.
SMILES	PAFAH1B3 FP inh	Fam108B counter	PAFAH2 FP inh	PAFAH1B2 inh	LYPLA1 inh	pPAFAH FP inh	GSTO1 counter	PAD4 FP inh
Cc1sc2nc(CN3CCOCC3)nc(NS(=O)(=O)c3cc(Cl)ccc3Cl)c2c1C	6	.	7	-1	-1	5	.	-7
O=C(COC(=O)c1cc(S(=O)(=O)N2CCOCC2)ccc1F)c1ccc[nH]1	13	-6	-8	4	0	4	-4	-5
O=c1[nH]c(C2CCCN(S(=O)(=O)c3ccccc3F)C2)nc2c1nnn2Cc1ccccc1Cl (stereo unspecified)	8	-3	7	16	-4	5	11	4
COc1cccc(Cn2cnc3c(NS(=O)(=O)c4cccc(Cl)c4Cl)c(C)c(C)cc32)c1	-6	-7	10	-8	-3	6	-6	0
COC(=O)C(C)n1cnc2c(nnn2-c2cccc(OC)c2)c1=O (stereo unspecified)	7	-5	2	-2	1	5	-2	-2
CC(=O)OC(/C(O)=C(\C#N)c1nc2ccccc2[nH]1)c1ccccc1 (stereo unspecified)	4	3	5	5	0	2	1	-4
O=S(=O)(Nc1cccc(-c2ccc3nncn3n2)c1)c1ccc(Cl)s1	1	1	-1	2	5	6	-5	0
CN(CC(=O)NCc1ccccc1Cl)CC(=O)Nc1ccccc1Br	5	.	-4	1	-2	1	.	1
O=C(NCCCn1ccnc1)c1ccccc1Cl	7	1	-11	-2	-2	5	0	-4
COC(=O)[C@@H](NC(=O)N1CCN(C(=O)C2COc3ccccc3O2)CC1)C(C)C (stereo partly specified)	5	1	1	4	-1	-1	2	-5
CCCC(C)c1nc(C(N)=O)c2[nH]c(=O)n(-c3ccc(OC)cc3OC)c2n1 (stereo unspecified)	2	4	-5	0	0	2	-3	2
Cc1ccc(/C=N/n2c(-c3ccco3)n[nH]c2=S)s1	6	2	-1	8	-1	6	8	8
COc1ccc(C(=O)NNC(=O)c2cc3ccccc3cc2O)cc1	14	0	3	10	-9	12	7	2
C=CCOc1c(Br)cc(/C=N/n2c(CC)n[nH]c2=S)cc1Br	-11	2	3	3	-3	2	1	3
N#Cc1c(SCc2ccccc2)nc(N2CCOCC2)c2c1CCCC2	6	5	-3	-4	-3	1	-10	6
COc1ccc(CNc2nc(NCc3ccc(OC)cc3)n(C(=O)c3ccccc3[N+](=O)[O-])n2)cc1	7	0	8	2	0	8	-6	-1
CCOC(=O)c1sc(Nc2nc3ccc(OC)cc3s2)cc1C	9	16	-6	7	0	5	1	3
Cc1ccc(S(=O)(=O)Nc2cccc(-c3ccc(N4CCCCCC4)nn3)c2)cc1C	-11	-30	-16	0	-19	-10	-25	-4
CC(=O)c1ccc(NC(=O)Cn2cnc(S(=O)(=O)N3CCC(C)CC3)c2)cc1	4	0	19	4	4	8	-1	-3

pPAFAH FP inh, hit marks shown above
compound,PAFAH1B3 FP inh,PAFAH2 FP inh,PAFAH1B2 inh,pPAFAH FP inh,PAD4 FP inh
Cc1ccc(Nc2nc(CSc3nnnn3-c3ccccc3)cc(=O)[nH]2)cc1,14,-5,4,27*,-17
